eIF4H inh: human eIF4H binding inhibitors, primary screen, translation initiation inhibitor project, biochemical, uHTS, fluorescence polarization; Eukaryotic translation initiation factor 4H (Homo sapiens), Q15056; eIF4H fluorescence polarization binding assay; inhibition, % at 35 µM; 290,000 tested, 0.94% active; AID 2012, 2009;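 active means 50% or more with normal probe brightness, or confirmed in later tests; inconclusive means above 50% with abnormal brightness, or retests that disagree; inactive means below 50% or failed in later tests; about a fifth of its hits are not listed in these tables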;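 further: calls also rest on retests at 20 µM and on dose response follow-up; 0% = protein and probe with vehicle and 100% = probe without protein; strong numbers were not always called active; many hits fall short of the cut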
CSC inhib: cancer stem cell viability inhibitors, primary screen, luminescence; inhibition, % at 7.5 µM; 300,000 tested, 1.1% active; cancer stem cell-like cells viability;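 active means mean at 75% or more and at least half the replicates too; inconclusive means mean and replicates disagree; tested in HMLE shEcad cells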;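 further: 0% = median of negative and 100% = median of positive control wells; the first replicate is given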
Rce1 inh: yeast Rce1p protease inhibitors, primary screen, biochemical, fluorescence, cell-free homogeneous. 290,000 tested, 0.27% active. yeast membranes, quenched prenylated peptide cleavage fluorescence. calls only. CAAX prenyl protease 2 (Saccharomyces cerevisiae (strain ATCC 204508 / S288c)), Q03530. AID 2563, 2010;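 active means fall in fluorescence gain of 50% or more versus controls, with final raw signal at or below 3038400; inconclusive means same 50% fall but final raw signal above 3038400; inactive means fall in fluorescence gain under 50%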;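 further: plate controls were neutral control wells for no effect and wells lacking membranes for full effect; tested at 10 µM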
MT1-MMP act inh: blockers of MT1-MMP proenzyme processing, primary screen, HT1080 RFP-PRO-GFP cells, GFP/RFP fluorescence. Matrix metalloproteinase-14 (Homo sapiens), P50281. GFP/RFP ratio fluorescence, overnight; percent of plate control window, DMSO zero. GFP/RFP ratio change, % at 20 µM. 360,000 tested, 0.061% active. AID 651647, 2012;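 active means GFP/RFP ratio change of at least 30% with cell ATP level not reduced by more than half and red fluorescence within 50% of control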; further: strong numbers were not always called active
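Assay system: HT1080 RFP-PRO-GFP cells. Benchmarks: DMSO vehicle wells and RFP-L50D-GFP reporter cell wells. Times: overnight cell settling, then overnight compound exposure, 37 °C, 5% CO2. Compound: 20 µM single dose, 1% DMSO. Read-out basis: GFP/RFP fluorescence ratio.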
Env fusion inh: inhibitors of HIV-1 Env-driven cell-cell fusion, primary screen, HeLa-JRFL effector, CEM21 target cells, luciferase | inhibition, % at 12.3 µM | 360,000 tested, 1.1% active | AID 651610, 2012;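 active means mean replicate inhibition score of at least 50 and every replicate individually at or above 50; inconclusive means only one of the two criteria met; inactive means mean below 50 and not all replicates reaching 50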;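 further: 0% = plate neutral controls and 100% = maraviroc near 300 nM; one replicate is shown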
PABP polyA inh: PABP poly(A) RNA binding inhibitors, primary screen, biochemical, fluorescence polarization, uHTS; 290,000 tested, 1% active; AID 2014, 2009; inhibition, % at 35 µM; Polyadenylate-binding protein 1 (Homo sapiens), P11940;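 active means 50% or more with normal probe brightness, or confirmed in later tests; inconclusive means above 50% with abnormal brightness, or retests that disagree; inactive means below 50% or failed in later tests; about a fifth of its hits are not listed in these tables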;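 further: calls also rest on retests at 20 µM and on dose response follow-up; controls were probe without protein and protein plus probe with vehicle; some compounds called inactive have numbers as strong as hits; many hits fall short of the cut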
Target sequence (P11940 whole entry, looked up): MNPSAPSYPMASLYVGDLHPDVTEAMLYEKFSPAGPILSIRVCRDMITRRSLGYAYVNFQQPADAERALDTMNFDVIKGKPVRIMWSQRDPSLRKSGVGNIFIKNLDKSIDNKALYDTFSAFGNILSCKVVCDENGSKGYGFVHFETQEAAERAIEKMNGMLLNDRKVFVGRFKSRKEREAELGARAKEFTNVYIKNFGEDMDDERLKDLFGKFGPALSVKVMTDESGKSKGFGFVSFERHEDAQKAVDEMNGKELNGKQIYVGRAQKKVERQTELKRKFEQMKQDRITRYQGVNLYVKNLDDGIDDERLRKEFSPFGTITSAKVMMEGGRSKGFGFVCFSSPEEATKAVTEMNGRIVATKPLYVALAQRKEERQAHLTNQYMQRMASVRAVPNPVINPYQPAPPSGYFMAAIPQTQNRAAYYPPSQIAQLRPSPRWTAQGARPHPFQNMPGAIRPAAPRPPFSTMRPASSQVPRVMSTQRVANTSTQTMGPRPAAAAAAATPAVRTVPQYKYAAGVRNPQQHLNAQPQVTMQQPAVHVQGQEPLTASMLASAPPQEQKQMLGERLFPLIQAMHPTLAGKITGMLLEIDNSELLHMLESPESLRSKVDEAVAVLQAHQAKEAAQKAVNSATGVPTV
UUG fidelity: modulators of yeast start codon fidelity, primary screen, whole organism, S. cerevisiae, single point, plate reader; S. cerevisiae UUG-firefly luciferase reporter, luminescence/redox ratio; activity score, % at 18.7 µM; 350,000 tested, 0.13% active;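 active means replicate mean at a twofold rise or more, about +100% in these data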;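 further: firefly luciferase made from a UUG start codon reports start codon fidelity; reporter light over untreated wells divided by growth signal over untreated wells; some hits fall short of that in this replicate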
eIF4H inh retest: further read-out of eIF4H inh, marked with its call; inhibition, %; compound at 20 µM; confirmation average;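 mean of two retest wells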
PABP polyA inh retest: second read-out of PABP polyA inh, no call of its own (marks repeat the call); inhibition, %; compound at 20 µM; confirmation repeats;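 mean of two retest wells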
MT1-MMP act inh RFP: second read-out of MT1-MMP act inh, no call of its own (marks repeat the call); RFP signal change, %; measured here: RFP expression control read;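 0 = vehicle wells; hits needed this value within 50% of zero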
* = called active by the depositor; i = inactive; u = inconclusive; x = no result given. This is a subset (hit frequency here may not be typical).

SMILES	eIF4H inh	CSC inhib	Rce1 inh	MT1-MMP act inh	MT1-MMP act inh RFP	Env fusion inh	PABP polyA inh	UUG fidelity	others
COC(=O)[C@@]12CCCCN1[C@H](c1ccc(-c3cc(C(C)=O)cs3)c(OC)c1)[C@H]1C(=O)N(C)C(=O)[C@H]12	x	7	x	-4	-8	-2	x	-15
O=C(NNc1cccc(Cl)n1)c1c(F)cccc1F	-1	-6	i	2	5	-3	-4	x
C=CCn1c(SCC(=O)Nc2cccc3ccccc23)nc(O)c(CC)c1=O	-2	-10	i	3	2	34	10	-9
CCOc1ccc(CC(=O)Nc2cc(=O)n(C)c(=O)n2C)cc1	0	-9	i	-3	-4	21	-3	-32
COc1ccccc1CNC(=O)Cn1c(=O)oc2cc(Cl)ccc21	14	1	i	1	1	8	-2	x
O=C(N/N=C/c1cccc([N+](=O)[O-])c1)c1cccc2cc[nH]c12	-13	2	i	0	-3	0	-2	x
COc1ccc(-c2cc(C(=O)NCc3ccc(C(F)(F)F)cc3)[nH]n2)c(C)c1	x	x	x	-1	-1	9	x	-14
COC(=O)C1=C(N)Oc2cc(C)n(CC3CCCO3)c(=O)c2C1c1ccccc1 (centres undefined)	-14	-5	i	-1	4	x	-1	9
CS(=O)(=O)c1ccc(C(=O)N2CCN(Cc3ccccc3)CC2)cc1	9	16	i	3	-5	6	-1	x
Cc1cc2nc(-c3ccccc3)c(Cc3cccc(F)c3)n2c(C)c1Br	x	x	x	4	3	74*	x	-12
CCCCn1c(NC(=S)Nc2ccccc2)nc2ccccc21	8	x	i	10	-13	36	-2	-33
C[C@@H](CN1CCC(Cc2ccccc2)CC1)[C@@H](O)c1ccc(O)cc1	x	26	x	4	2	7	x	-7
O=C(NC(=S)Nc1ccc(Cc2ccncc2)cc1)c1ccccc1Cl	2	21	i	3	-1	-17	0	0
Cc1ccc(N(CC(=O)NCC2CCCO2)S(C)(=O)=O)cc1Cl (centres undefined)	-8	x	i	1	0	-4	2	-15
CC1(C(=O)NS(=O)(=O)c2ccc(C#N)cc2)CCN1C(=O)C1CCCCC1 (centres undefined)	x	x	x	-3	3	-10	x	-5
CC(=O)N1CCCC(c2cc(C(=O)Nc3ccccc3)no2)C1 (centres undefined)	x	x	x	-2	2	42	x	-84
Cc1nn(Cc2ccccc2)c(C)c1C(=O)N1CCN(CC(=O)Nc2ccc(F)cc2)CC1	x	x	x	2	-4	-27	x	-8
Nc1c(S(=O)(=O)c2cccc(Cl)c2)c2nc3ccccc3nc2n1CCN1CCOCC1	-5	-8	i	-3	-1	10	-10	-16
CCOC(=O)CC1C(=O)NCCN1S(=O)(=O)c1ccc(C)cc1 (centres undefined)	-2	2	i	-7	1	-5	24	-15
CCOC(=O)c1ccc(N2C(=O)CC(C3CCCO3)C2=O)cc1 (centres undefined)	7	-1	i	0	2	x	21	6
CC1CC(C)(C)NCCNC(C)CC(C)(C)NCCN1 (centres undefined)	1	-15	i	3	7	2	8	-12
O=C(CSc1nnc(-c2ccc(F)cc2)c2ccccc12)Nc1ccccc1	-8	9	i	-2	-4	8	2	x
CC(=O)c1c(C)[nH]c(C(=O)OCC(=O)c2ccc(Br)cc2)c1C	x	x	x	0	-16	13	x	-11
COC(=O)c1cc2sc(Cl)cc2n1CC(=O)Nc1ccc(OC)c(OC)c1OC	25	-13	i	18	2	-220	-4	-12
COc1ccc2nc(C)cc(SCC(=O)N/N=C/c3ccc(O)c(O)c3)c2c1	-9	20	i	1	-13	21	-9	x
CCOC(=O)c1ccccc1NC(=O)CSc1nc2ccncc2[nH]1	2	-7	i	-5	-2	-1	10	-23
CCC(=O)Nc1ccccc1C(=O)N1CCN(Cc2ccccc2)CC1	-12	-14	i	-2	6	x	2	-14
Cn1c(=O)c2c(nc(CN3CCN(c4ccccc4F)CC3)n2CCCc2ccccc2)n(C)c1=O	x	8	i	-4	3	x	x	-2
COc1ccc(NC(=O)CSCC(=O)N(C)CCOc2ccc(Cl)cc2)cc1	x	-14	i	2	0	-32	x	-4
O=C(NCCCN1CCCC1=O)c1cc2c(s1)CCCCC2	5	-1	i	0	1	-18	12	7

Overlap with the part before: 2 compounds, then new ones.
SMILES	eIF4H inh	CSC inhib	Rce1 inh	MT1-MMP act inh	MT1-MMP act inh RFP	Env fusion inh	PABP polyA inh	UUG fidelity	others
COc1ccc(NC(=O)CSCC(=O)N(C)CCOc2ccc(Cl)cc2)cc1	x	-14	i	2	0	-32	x	-4
O=C(NCCCN1CCCC1=O)c1cc2c(s1)CCCCC2	5	-1	i	0	1	-18	12	7
CCOC(=O)N1CCN(C(=O)c2cc(COc3cccc(C(C)=O)c3)on2)CC1	-14	-10	x	3	0	-10	-3	-15
FC(F)(F)c1cccc(NC(=S)NCC(c2cccnc2)N2CCOCC2)c1 (centres undefined)	-8	-17	i	6	8	20	-4	x
COc1ccc(C(O)(C2CCCCC2)C(CN2CCOCC2)c2ccccc2)cc1 (centres undefined)	-2	20	i	-8	-10	74*	5	7
O=C(CC(c1ccccc1)c1ccccc1)N1CCN(c2ccccn2)CC1	-2	-13	i	2	-7	-4	-3	-6
O=C(CC(Cc1ccccc1)c1ccco1)NCc1ccco1 (centres undefined)	13	1	i	-3	-1	1	0	-23
Cn1cc(C(=O)NCN2CCCCC2)c2ccccc21	-7	x	i	11	9	x	-3	-7
CS(=O)(=O)c1ccc(Cl)c(NC(=O)COC(=O)CNC(=O)c2sc3ccccc3c2Cl)c1	x	10	x	6	5	x	x	-14
O=C(CCSc1ccccn1)c1ccccc1	-1	16	i	3	5	4	-11	-11
CCCNC(=O)c1ccc(OC)cc1OC	-9	x	i	2	-1	-62	-11	-10
CC(=O)Nc1ccc(NC(=O)c2sc(-c3ccccc3)nc2C)cc1	-6	-1	i	10	4	-13	0	-3

Grouped by structure, the compounds so far with a Cl atom
SMILES	eIF4H inh	CSC inhib	Rce1 inh	MT1-MMP act inh	MT1-MMP act inh RFP	Env fusion inh	PABP polyA inh	UUG fidelity	others
O=C(NNc1cccc(Cl)n1)c1c(F)cccc1F	-1	-6	i	2	5	-3	-4	x
COc1ccccc1CNC(=O)Cn1c(=O)oc2cc(Cl)ccc21	14	1	i	1	1	8	-2	x
O=C(NC(=S)Nc1ccc(Cc2ccncc2)cc1)c1ccccc1Cl	2	21	i	3	-1	-17	0	0
Cc1ccc(N(CC(=O)NCC2CCCO2)S(C)(=O)=O)cc1Cl (centres undefined)	-8	x	i	1	0	-4	2	-15
Nc1c(S(=O)(=O)c2cccc(Cl)c2)c2nc3ccccc3nc2n1CCN1CCOCC1	-5	-8	i	-3	-1	10	-10	-16
COC(=O)c1cc2sc(Cl)cc2n1CC(=O)Nc1ccc(OC)c(OC)c1OC	25	-13	i	18	2	-220	-4	-12
COc1ccc(NC(=O)CSCC(=O)N(C)CCOc2ccc(Cl)cc2)cc1	x	-14	i	2	0	-32	x	-4
CS(=O)(=O)c1ccc(Cl)c(NC(=O)COC(=O)CNC(=O)c2sc3ccccc3c2Cl)c1	x	10	x	6	5	x	x	-14

(more compounds)
SMILES	eIF4H inh	CSC inhib	Rce1 inh	MT1-MMP act inh	MT1-MMP act inh RFP	Env fusion inh	PABP polyA inh	UUG fidelity	others
COC(=O)CC(=O)N1CCN(c2ccc(Cl)c(Cl)c2)CC1	0	-8	i	-1	-3	-2	-5	x
Cc1oc(-c2ccccc2Cl)nc1Cn1cccc1C1=NC(c2ccccc2)CO1 (centres undefined)	-10	49	i	-3	-9	u	-8	-21
O=C(O)CNc1nc(-c2ccccc2)nc2ccccc12	-4	x	i	3	6	x	-8	-13
COc1ccc(C(=O)OCCOc2cccc(Cl)c2)cc1S(=O)(=O)N1CCOCC1	10	5	i	1	1	-10	36	-5
CCC(C)c1ccc(NC(=O)c2cnn3c(C(F)F)cc(C)nc23)cc1 (centres undefined)	5	15	i	0	0	-2	-12	-7
CNC(=O)c1sc(-c2cccs2)nc1C	4	-7	i	6	9	-29	-7	-5
CCOCC(=O)Nc1ccc(S(=O)(=O)N2CCC(c3nc4ccccc4[nH]3)CC2)cc1	x	0	i	3	-1	2	x	-1
Oc1ccc(Cl)cc1CNc1cccc2cccnc12	13	24	i	-2	5	3	12	5
CCOC(=O)N/N=C/C(Cl)=C/c1ccccc1	-5	0	i	4	-1	-31	4	-19
COc1cccc(Nc2ncccc2C(=O)O)c1	-3	-3	i	-1	6	x	12	-17
CCOC(=O)c1cn(Cc2cccc(Cl)c2)nn1	4	14	i	2	0	-7	8	-8
CCOc1ccccc1NC(=O)c1cccc(S(=O)(=O)N(Cc2ccccc2)c2ccccc2OC)c1	0	3	i	-9	-10	4	-2	2
COc1ccc([C@H]2CC(=O)C=C(c3cc(C=O)ccc3OC)C2)cc1OC	x	7	x	-1	-3	17	x	-25
FC(F)Oc1ccc(-c2csc(=Nc3cccnc3)n2CC2CCCO2)cc1 (centres undefined)	-8	-8	i	-3	-20	28	-5	-31
Cc1cc(C)c(S(=O)(=O)NCC(c2ccc3c(c2)OCO3)N2CCOCC2)c(C)c1 (centres undefined)	x	10	i	3	1	20	x	-21
COc1cc(/C=C2/SC(=S)N(CC(=O)O)C2=O)ccc1OCC(=O)Nc1ccc(C)c(C)c1	0	-14	i	-3	9	-3	26	-14
Cc1nc(C)c(C(=O)N2CCCC(C(=O)c3ccc(Cl)cc3C)C2)s1 (centres undefined)	x	-4	i	-3	-3	1	x	-16
C/C(=N\N=C1\NC(=O)CS1)c1cccs1	-5	3	i	3	3	-14	0	x
O=C(COC(=O)CCC1CCCC1)Nc1cccc(S(=O)(=O)N2CCOCC2)c1	x	20	i	-1	2	-31	x	-8
Cc1ccc(S(=O)(=O)N2CCCCC2)cc1NC(=O)CSc1ncn[nH]1	-1	-13	i	3	4	3	9	-10
CCCN1C2CCCC1CC(NC(=O)c1ccccc1Br)C2 (centres undefined)	-1	-8	i	1	2	-33	4	-4
Cc1nc2ccccc2n1C(=O)c1ccccc1[N+](=O)[O-]	-8	1	i	-4	-2	15	63	21	eIF4H inh retest=29;PABP polyA inh retest=9
O=C(Nc1nccs1)c1cn2ccccc2n1	6	-5	i	-1	2	3	-5	x
CCN=C1SC(CC(=O)Nc2sc3c(c2C#N)CCCC3)C(=O)N1CC (centres undefined)	2	-2	i	-1	-4	x	-5	-15
NC(=O)CSc1nnc(-c2ccc(S(=O)(=O)N3CCOCC3)cc2)n1CC1CCCO1 (centres undefined)	5	-11	i	-5	3	-5	-3	-15

Screens (PubChem BioAssay)
